Screens as filed in PubChem BioAssay.
Beta2AR agonist = beta2AR agonists driving receptor internalization, primary screen, cell-based, FAP fluorogen, flow cytometry. Am2.2-beta2AR cells; reference of the scale not given here. Beta-2 adrenergic receptor (Homo sapiens), P07550. response, % (test concentration not listed). 340,000 compounds, 0.43% hits;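 active = response above a set limit, near 3 SD of response in nonfluorescent compounds, cut at about 42% in these data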;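 also: stock transfer was 100 nL into about 11 µL; a reference agonist was the positive control; negative values mostly stem from fluorescent compounds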
Target sequence (P07550 whole entry, looked up): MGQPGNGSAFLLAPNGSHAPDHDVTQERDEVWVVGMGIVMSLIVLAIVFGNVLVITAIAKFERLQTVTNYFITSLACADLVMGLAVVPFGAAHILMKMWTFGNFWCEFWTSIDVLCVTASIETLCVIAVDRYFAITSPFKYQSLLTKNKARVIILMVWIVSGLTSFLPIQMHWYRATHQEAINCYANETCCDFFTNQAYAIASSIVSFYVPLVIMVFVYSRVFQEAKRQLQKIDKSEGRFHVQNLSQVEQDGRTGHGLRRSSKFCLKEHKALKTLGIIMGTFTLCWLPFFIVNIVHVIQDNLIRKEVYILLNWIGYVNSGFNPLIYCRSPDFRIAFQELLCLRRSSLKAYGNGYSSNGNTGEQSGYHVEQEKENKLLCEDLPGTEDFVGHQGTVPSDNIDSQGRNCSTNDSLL
Vif A3G = inhibitors of Vif binding to APOBEC3G peptide, primary screen, biochemical, TR-FRET, GST-Vif 1-94, biotin-A3G peptide, dose response retest (AID 1117319); one-dose inhibition, %; IC50 in µM for titrated hits; 260,000 compounds, 0.57% hits; TR-FRET GST-Vif / biotin-A3G peptide binding; higher % means a stronger effect; test concentration not given here; strong numbers were not always called active;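 active = above the screen mean plus three standard deviations and confirmed in dose response; inconclusive = results disagree or hit not tested in dose response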;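 also: Vif residues 1-94 fused to GST binding biotinylated APOBEC3G peptide 110-148; 0% = full assay without inhibitor and 100% = GST in place of GST-Vif; retest series ran down from 100 µM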
Calb FLC = C. albicans growth inhibition with fluconazole, primary screen, CaCi-2 strain, Alamar Blue fluorescence; 300,000 compounds, 0.57% hits; AID 1979, 2009; growth inhibition, % (concentration not given with the values); C. albicans CaCi-2 (fluconazole-resistant clinical isolate) + fluconazole, 48 h;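 active = most replicates above 75%; inconclusive = exactly half above 75%; inactive = most below 75%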;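 also: all wells also contain fluconazole at 8 µg/ml as a sub-toxic cotreatment; 0% = median of DMSO wells and 100% = median of geldanamycin control wells; wells of about 8 µL received 7.5 nL stock; the first replicate is given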
LANA-H2A inh = blockers of LANA interaction with H2A/H2B – biochemical, FP readout, HTS, primary screen; 320,000 compounds, 0.6% hits; AID 2629, 2010; cell-free LANA-H2A/H2B peptide, fluorescence polarization; inhibition, % (concentration not given with the values); in the data active = inhibition mostly above about 10%, no sharp cut-off; inactive = mostly below about 6.7%;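 also: stock transfer was 7.5 nL into about 10 µL; 0% = median of vehicle wells and 100% = median of positive control wells; one replicate is shown; the record names a cut of 25% in any replicate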
HNF4A DNA FP = change in binding of human HNF4A to DNA, primary screen, biochemical, fluorescence polarization, FITC-DNA. Hepatocyte nuclear factor 4-alpha (Homo sapiens), P41235. 360,000 compounds, 0.3% hits. AID 1224865, 2016. activity change, % at 10 µM. 1 h; in the data active = activity change above about 30%, passing the limit was not always enough;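 also: controls were the assay level and a saturating level of protein; the project sought stronger binding though the title names inhibitors; some compounds called inactive have numbers as strong as hits; positive values seem to mean higher polarization but the record does not say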
Target sequence (P41235 whole entry, looked up): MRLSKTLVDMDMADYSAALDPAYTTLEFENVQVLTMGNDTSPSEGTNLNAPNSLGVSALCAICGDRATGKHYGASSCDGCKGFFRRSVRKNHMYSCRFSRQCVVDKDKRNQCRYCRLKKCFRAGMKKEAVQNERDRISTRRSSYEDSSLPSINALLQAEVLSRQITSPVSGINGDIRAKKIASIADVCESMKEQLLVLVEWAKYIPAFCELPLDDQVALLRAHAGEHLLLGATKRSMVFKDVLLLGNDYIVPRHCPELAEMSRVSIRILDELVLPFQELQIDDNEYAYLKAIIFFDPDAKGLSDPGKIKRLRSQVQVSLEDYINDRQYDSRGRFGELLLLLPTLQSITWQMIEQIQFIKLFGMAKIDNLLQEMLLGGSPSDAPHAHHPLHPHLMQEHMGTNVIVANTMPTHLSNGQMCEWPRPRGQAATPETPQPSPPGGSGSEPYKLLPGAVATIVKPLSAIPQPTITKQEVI
RanGTP-Impb inh = inhibitors of RanGTP-importin-beta interaction, primary screen, biochemical, FRET, CFP-Ran, YFP-importin-beta, homogeneous; cell-free CFP-Ran/YFP-importin-beta FRET ratio; inhibition, % (no concentration beside the values); 300,000 compounds, 1.1% hits; AID 2216, 2009;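 active = most replicates above 15%; inconclusive = exactly half above 15%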;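 also: 0% = DMSO wells and 100% = Ran loaded with GDP instead of GTP; wells of about 40 µL received 100 nL stock; the first replicate is given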
ALR inh = inhibitors of human ALR sulfhydryl oxidase, primary screen, biochemical, H2O2 detection, HRP-luminol luminescence, single point | 290,000 compounds, 3.8% hits | inhibition, % (test concentration not listed) | AID 485317, 2010 | FAD-linked sulfhydryl oxidase ALR (Homo sapiens), P55789 | purified ALR, DTT oxidation;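 active = mean and each replicate at 75% or more; inconclusive = only one of the two met; inactive = neither met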;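 also: stock transfer was 7.5 nL into about 7.5 µL; 0% = neutral wells and 100% = wells with inactivated enzyme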
Target sequence (P55789 whole entry, looked up): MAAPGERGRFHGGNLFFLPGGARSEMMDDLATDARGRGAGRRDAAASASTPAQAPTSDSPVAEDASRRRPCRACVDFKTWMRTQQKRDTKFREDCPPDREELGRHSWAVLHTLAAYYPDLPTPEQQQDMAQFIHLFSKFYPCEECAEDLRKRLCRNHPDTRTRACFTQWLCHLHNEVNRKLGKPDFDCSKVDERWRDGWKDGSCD
Numbers without * were called inactive; ? = inconclusive; . = not tested or not shown; & = joins results of further samples.

No.	molecule	Vif A3G	LANA-H2A inh	Beta2AR agonist	HNF4A DNA FP	Calb FLC	ALR inh	RanGTP-Impb inh
1	CCOC(=O)Cc1nnc(NC(=O)CSc2nc3ccccc3[nH]2)s1	17.3%	0.2	-8.6	2.6	1.9	.	?
2	O=C(N1CCCC1)C12CC3CC(CC(Cl)(C3)C1)C2	-13.4%	4.1	-2.4	3.0	-2.7	-1.0	-0.9
3	CC(C)(C)N(Cc1ccccc1)C(=O)COC(=O)C1CC(=O)N(Cc2ccccc2)C1 (stereo not given)	0.6%	.	11.0	-2.8	.	.	.
4	Cc1cccc(NC(=O)NNC(=O)CCc2ccccc2)c1	-0.8%	0.5	1.2	1.8	-3.7	-22.5	-0.2
5	CC(C)CC1CCCCC1OC(=O)C[N+]1(C)CCCCC1 (stereo not given)	25.7%	0.9	4.3	3.3	-23.7	-17.7	3.0
6	COc1ccc(-n2c(SCC(=O)Nc3nccs3)nc3c(c2=O)SC(C)C3)cc1 (stereo not given)	-3.9%	0.7	0.0	-1.6	-0.8	-8.8	3.7
7	Nc1nc(NCCc2ccccc2)nc(NCCO)c1[N+](=O)[O-]	1.2%	-1.2	2.1	1.6	0.4	-7.5	1.8
8	N#Cc1ccc(CN2CCN(c3ccc(S(=O)(=O)N4CCCC4)cn3)CC2)cc1	-15.1%	-0.9	8.2	6.0	.	-0.4	.
9	COc1cccc(/C=N/Nc2c(Cl)cncc2Cl)c1O	4.2%	0.4	-15.1	-0.7	-4.9	-13.0	-0.2
10	Cc1ccc(C2Nc3cccc4cccc(c34)N2)s1	.	0.0	1.8	-1.4	1.7	-41.1	-1.2
11	CNc1c(NS(=O)(=O)c2ccc(F)c(Cl)c2)c(=O)oc2ccccc12	.	-3.2	-22.3	0.1	1.5	.	-2.8
12	CCOCCCNC(=O)C1CCCN(S(=O)(=O)c2ccc(-n3cnnn3)cc2)C1 (stereo not given)	.	4.5	-1.5	-1.4	-2.2	-7.2	-2.5
13	COc1ccc(C(=O)Nc2nc(C)c3cc4c(cc3n2)OCO4)cc1	.	2.2	0.5	1.5	?	-10.4	-4.2
14	CCOC(=O)C(CC)Sc1nnc2cc(C)c3ccccc3n12 (stereo not given)	9.3%	0.5	-0.1	-1.5	-0.7	-5.7	0.8
15	Cc1cc(C(=O)N/N=C/C=C/c2ccccc2)n[nH]1	.	-1.5	-6.4	2.7	2.4	.	2.1
16	Cc1ccccc1NC(=O)COC(=O)C1=COCCO1	-3.9%	-2.0	5.7	3.8	.	.	.
17	COC(=O)C1=C(C)Nc2c(c(=O)n(C)c(=O)n2C)C1c1ccc(Cl)cc1 (stereo not given)	2.6%	-2.1	-16.9	-1.8	10.6	-0.1	-1.0
18	Cc1ccc(S(=O)(=O)C(F)(F)F)cc1NC(=O)c1cccnc1	67.5%	1.3	-5.0	0.1	0.2	-1.8	-0.2
19	CCOC(=O)c1c(/N=C/c2cc(C)ccc2O)sc2c1CCN(C)C2	13.6%	1.8	5.2	1.1	-1.4	97.8*	56.3*
20	O=c1c(C=Nc2ccc(Oc3ccccc3)cc2)c[nH]n1-c1cccc(Cl)n1	-7.5%	-1.4	-11.0	0.7	-6.4	-5.1	?
21	N=C1c2ccccc2CN1NC(=O)c1cccc(S(=O)(=O)N2CCCCC2)c1	-4.0%	1.4	9.4	1.8	-13.2	12.0	0.3
22	O=C(N/N=C/c1cccs1)c1cc(-c2ccc(Cl)s2)[nH]n1	.	-5.9	-16.2	1.6	3.1	-0.6	3.2
23	Cc1ccc(-c2nnc(SCC(=O)N(C)C)nc2-c2ccc(C)cc2)cc1	.	0.0	10.2	1.0	4.9	4.0	-4.0
24	CCN1C(=O)CC(N2CCC(C(=O)N3CCCCCC3)CC2)C1=O (stereo not given)	16.9%	-8.0	-8.7	2.6	-2.1	-2.9	-2.2
25	O=C(NCc1ccc(OC(F)(F)F)cc1)c1cc(-c2ccccc2)nn1CC1CC(c2cccnc2)=NO1 (stereo not given)	.	3.9	-5.9	-1.5	15.6	.	0.4
26	CCCN1C(=O)c2ccc(C(=O)Nc3ccc4c(c3)OCO4)cc2C1=O	.	-0.2	1.1	1.9	-4.0	-3.0	-3.5
27	COC(=O)c1ccccc1NC(=O)Cn1nnc(-c2ccc3c(c2)OCO3)n1	-0.8%	-15.6	-15.1	2.2	-0.4	-0.2	-2.5
28	CC(=O)c1ccccc1Oc1nc(CN2CCOCC2)nc2scc(-c3cccs3)c12	-0.2%	2.5	0.2	-4.2	0.9	-1.9	1.5
29	COc1ccc(-c2nnc(Nc3ccc(S(=O)(=O)Nc4nccs4)cc3)c3ccccc23)cc1	12.6%	.	1.9	-0.5	4.4	.	6.9
30	CCOC(=O)N1CCN(C(=O)CN(Cc2ccccc2)S(=O)(=O)c2ccc(OC)c(Cl)c2)CC1	-0.5%	3.4	6.7	0.8	-12.6	-4.2	-1.6

Not a retest: an excerpt of the list.
No.	molecule	Vif A3G	LANA-H2A inh	Beta2AR agonist	HNF4A DNA FP	Calb FLC	ALR inh	RanGTP-Impb inh
1	CCOC(=O)Cc1nnc(NC(=O)CSc2nc3ccccc3[nH]2)s1	17.3%	0.2	-8.6	2.6	1.9	.	?
2	O=C(N1CCCC1)C12CC3CC(CC(Cl)(C3)C1)C2	-13.4%	4.1	-2.4	3.0	-2.7	-1.0	-0.9

(cont.)
No.	molecule	Vif A3G	LANA-H2A inh	Beta2AR agonist	HNF4A DNA FP	Calb FLC	ALR inh	RanGTP-Impb inh
31	CC(=O)N1CCN(Cc2nc3cc(NC(=O)NC4CCCCC4)ccc3n2C)CC1	-9.2%	3.2	-6.5	-2.1	11.0	-11.7	-5.2
32	O/N=C(/c1ccc(Cl)cc1)C1CC1c1ccccc1 (stereo not given)	2.5%	2.7	-2.9	1.0	-19.1	-5.9	-6.6
33	O=C(O)/C(=C\c1cccc(F)c1)c1ccc(S(=O)(=O)N2CCCCC2)s1	16.4%	1.8	0.8	-1.5	-4.1	4.7	-0.2
34	N#Cc1c(NC(NC(=O)c2ccco2)C(=O)c2ccccc2)sc2c1CCCC2 (stereo not given)	17.8%	1.8	4.1	0.5	32.8	1.8	1.6
35	COc1ccc(Cc2nc(C(=O)Nc3ccc(F)cc3)cs2)cc1	-3.4%	-0.9	2.0	3.1	14.6	-9.6	4.5
36	COc1ccc(-c2c(C)[nH]n3c(=O)c(Cc4ccccc4)c(C)nc23)cc1OC	9.9%	-0.2	6.2	0.1	7.7	-5.5	3.4
37	CCn1c(COc2c(C)cccc2C)nnc1SCC(=O)N1CCN(c2ccccc2)CC1	7.5%	4.9	23.4	2.2	1.3	8.7	1.1
38	COc1ccccc1NC(=O)CSc1nnc(-c2ccco2)n1N	6.0%	-11.3	-7.0	6.5	-0.7	-4.4	3.2
39	Cc1cc(/C=C(\C#N)C(=O)NCc2cccs2)c(C)n1-c1ccc([N+](=O)[O-])cc1	2.4%	5.2	12.8	0.5	10.0	.	1.7
40	Cc1ccccc1N(CC(=O)NC(C)(C)C)C(=O)CCC(=O)Nc1nccs1	0.1%	-3.6	-2.6	4.3	-0.3	-2.9	-0.1
41	Cc1ccc(-c2cc(C(=O)Nc3c(C)n(C)n(-c4ccccc4)c3=O)[nH]n2)c(O)c1	23.2%	1.4	-5.4	-0.2	-8.5	0.8	-2.3
42	CC(=O)Nc1ccc2nc(CN3CCN(Cc4ccc(F)cc4)C(CCO)C3)ccc2c1 (stereo not given)	1.8%	-0.4	-0.8	-1.0	1.6	-6.9	3.6
43	COc1ccc2oc(=O)c(C(=O)Nc3ccccc3C)cc2c1	.	-4.6	-5.8	-0.1	3.6	-6.0	3.3
44	COC(=O)c1c(C)c[nH]c1C	.	8.1	15.3	2.5	0.0	-19.1	-0.3
45	CC(C)c1nnc(SCC(=O)NC(C)(C)C)n1C	-5.8%	-1.1	-2.6	-4.4	7.7	-0.6	-2.3
46	O=[N+]([O-])c1ccc(N2CCCCC2)nc1N1CCCCC1	4.8%	3.9	-12.0	-1.5	-3.0	.	5.4
47	Cc1ccc(OCC(O)CNC(C)c2ccccc2)cc1C (stereo not given)	1.0%	-10.4	14.4	-1.4	6.5	-6.1	2.2
48	CCN(CC)S(=O)(=O)c1ccc2c(c1)N(CC(=O)NCCCN1CC(C)CC(C)C1)C(=O)CO2 (stereo not given)	-6.5%	.	8.4	1.3	-1.4	-29.2	-1.0
49	CC(C(=O)c1ccccc1)n1c(N2CCOCC2)nc2c1c(=O)n(C)c(=O)n2C (stereo not given)	9.7%	4.1	-0.9	-3.5	7.1	.	3.7
50	COc1ccc2cc(C)c3nnc(SCC(=O)Nc4nc(-c5ccc(F)cc5)cs4)n3c2c1	-7.1%	4.5	2.5	3.9	-1.3	-9.7	-4.0
51	CCOC(=O)N1CCN(C(=O)CS(=O)(=O)Cc2nc(-c3cccc(OC)c3)oc2C)CC1	.	-2.4	-1.8	1.8	0.3	-2.2	?
52	FC(F)(F)c1cccc(NC(=S)NCCc2ccccn2)c1	25.3%	1.2	-2.5	1.9	-9.7	77.4*	3.1
53	CC(C)c1ccc(-c2noc(C3CCCN(S(C)(=O)=O)C3)n2)cc1 (stereo not given)	-8.1%	3.2	-4.1	-1.1	-8.8	-1.6	0.8
54	CC(C)(C)NC(=O)CSc1nc2ccccc2n1-c1ccccc1	?	3.1	-8.8	2.7	-9.9	-8.0	?
55	CCC(c1nnnn1C(C)(C)CC)N(CCN1CCOCC1)Cc1cc2cc(C)ccc2[nH]c1=O (stereo not given)	2.8%	4.1	-15.3	-0.2	20.3	2.9	-9.6
56	O=C(Nc1ccc(Cl)cc1)c1ccc(-n2cccn2)c([N+](=O)[O-])c1	1.5%	-1.4	8.5	0.4	-5.0	-7.8	-1.7
57	CCOC(=O)Nc1cccnc1Sc1ccc(Cl)cc1	.	-4.4	-0.1	0.4	11.0	-23.4	0.3
58	O=C1c2cccnc2C(=O)N1CO	-0.3%	-9.7	-9.5	1.3	32.5	-3.9	0.6
59	Cc1ccc(C)c(Nc2nc(-c3ccncc3)nc3ccccc23)c1	-7.9%	-1.4	-8.6	3.2	.	1.8	-2.1
60	O=C1CCN(CCc2ccccc2)CCN1[C@H](CSc1ccccc1)Cc1ccccc1	.	1.2	-3.6	-0.6	-12.3	.	-2.2
61	COc1cccc2c1O/C(=N\O)C(C(=O)Nc1ccc(C)cc1)C2 (stereo not given)	0.0%	-2.8	-7.8	-1.1	-11.3	-0.1	-3.9
62	O=Cc1ccc(OCc2ccccn2)cc1	1.1%	-1.2	-4.5	-2.1	-6.5	.	-4.3
63	Cc1ccc(OCC(O)CN2CCN(CC(O)COc3ccc(C)cc3Cl)CC2)c(Cl)c1 (stereo not given)	-2.2%&-0.5%	1.1	17.0	3.0	17.8	-1.6	-3.2
64	CN1CCN(S(=O)(=O)c2ccc(NCc3ccc4c(c3)OCO4)nc2)CC1	-7.2%	.	-7.0	0.9	?	.	-0.8
65	NC(=O)CC(c1ccccc1)c1ccco1 (stereo not given)	-7.2%	0.2	-4.5	0.2	15.4	.	-2.0
66	O=C(/C=C/c1cccs1)NC(=S)Nc1ccccc1	-1.2%	-2.3	3.8	-0.4	-15.9	2.3	-4.2
67	CCCC(C)NC(=O)COC(=O)c1cc(Br)c(Br)s1 (stereo not given)	-4.9%	-6.2	-4.5	0.6	2.4	-3.1	6.3
